# TAR Tat displ – HIV-1 TAR-Tat binding disruption; HIV-1 TAR RNA, Tat peptide displacement FRET; active compounds read high; z-score (concentration not given with the values); 100,000 tested, 0.6% active; AID 1259389;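 also: score is relative to mean and SD of negative controls; some compounds called inactive have numbers as strong as hits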
# CDC25B-CDK2 inh – human CDC25B-CDK2/CyclinA binding inhibition. HTRF CDC25B-CDK2/CyclinA binding, anti-His/anti-Flag; active compounds read high. 94,000 tested, 0.72% active. AID 1259370. z-score (test concentration not listed);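 also: score is relative to mean and SD of negative controls; strong numbers were not always called active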
# Starred values were filed as active, the others as inactive; . = not tested or not shown; & = joins results of further samples; ! = repeats disagree.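 The calls were made as follows: active = z-score from 3 up in half or more of its runs; inactive = the rest.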 Only part of the results is shown; count on the stated rates, not on these rows.
O=C(Nc1nnc(SCc2nnc(-c3ccccc3)o2)s1)c1cccc(Cl)c1
  TAR Tat displ = 3	CDC25B-CDK2 inh = .
Oc1ccc(C2CNCCc3c2cc(O)c(O)c3Cl)cc1 (configuration not stated)
  TAR Tat displ = 2.6	CDC25B-CDK2 inh = 0.22
Oc1ccc2c(c1)OCC1(O)Cc3cc(O)c(O)cc3C21 (configuration not stated)
  TAR Tat displ = -5.8	CDC25B-CDK2 inh = .
Cc1ccc(N(CC2=NCCN2)c2cccc(O)c2)cc1
  TAR Tat displ = .	CDC25B-CDK2 inh = 0.1
CC(O)CNC(=O)C(=O)Nc1c2c(nn1-c1ccc(Cl)cc1)CSC2 (configuration not stated)
  TAR Tat displ = 0.69	CDC25B-CDK2 inh = .
C1COC(NC(C2CC2)C2CC2)=N1
  TAR Tat displ = 2.2	CDC25B-CDK2 inh = 0.16
CC(=O)Nc1ccc(CC(=O)O)cc1
  TAR Tat displ = 0.75	CDC25B-CDK2 inh = .
CCOC(N)=O
  TAR Tat displ = -0.02	CDC25B-CDK2 inh = .
NC1=NC(c2cccc(F)c2)n2c(nc3ccccc32)N1 (configuration not stated)
  TAR Tat displ = 0.7	CDC25B-CDK2 inh = -1.6
O=C(CCc1nnc2ccc(N3CCOCC3)nn12)N1CCN(c2ccccn2)CC1
  TAR Tat displ = 1.1	CDC25B-CDK2 inh = .
CN(C)CCCC1(c2ccc(F)cc2)OCc2cc(C#N)ccc21 (configuration not stated)
  TAR Tat displ = 2.1	CDC25B-CDK2 inh = -1.8
CC12CCC(=O)C=C1CCC1C2CCC2(C)C1CCC2(O)C(=O)CO (configuration not stated)
  TAR Tat displ = 1.4	CDC25B-CDK2 inh = .
COc1ccc(-c2cc(=S)ss2)cc1
  TAR Tat displ = 1.6	CDC25B-CDK2 inh = .
c1cnc2cc3c(cc2n1)C1CNCC3C1
  TAR Tat displ = .	CDC25B-CDK2 inh = -0.16
Cc1c(Cn2ccnc2)c2ccccc2n1CCC(=O)O
  TAR Tat displ = .	CDC25B-CDK2 inh = -2
O=C(CN1C(=O)c2cccnc2Sc2ccccc21)NCCc1c[nH]c2ccccc12
  TAR Tat displ = -0.1	CDC25B-CDK2 inh = .
NOCC(=O)O
  TAR Tat displ = .	CDC25B-CDK2 inh = 1.1
NC1CCN(c2nc3c(cc2F)c(=O)c(C(=O)O)cn3-c2ccc(F)cc2F)C1 (configuration not stated)
  TAR Tat displ = 1.5	CDC25B-CDK2 inh = .
O=C(O)c1cccnc1Nc1cccc(C(F)(F)F)c1
  TAR Tat displ = 1.7	CDC25B-CDK2 inh = -1.3
CC(=O)CCCCn1c(=O)c2c(ncn2C)n(C)c1=O
  TAR Tat displ = 0.59	CDC25B-CDK2 inh = -0.15
NC(N)=O
  TAR Tat displ = 1.2	CDC25B-CDK2 inh = .
CN(C1CCCCC1)S(=O)(=O)N1CCCC(C(=O)NCc2ccc3c(c2)OCO3)C1 (configuration not stated)
  TAR Tat displ = 2.9	CDC25B-CDK2 inh = .
O=S(=O)(c1ccc2nc(N3CCN(C4CCCCC4)CC3)ccc2c1)N1CCCCC1
  TAR Tat displ = 1.8	CDC25B-CDK2 inh = .
O=C(Cn1c(=O)n(Cc2ccco2)c(=O)c2oc3ccccc3c21)Nc1ccccc1
  TAR Tat displ = 0.83	CDC25B-CDK2 inh = .
O=c1oc2c(O)c(O)cc3c(=O)oc4c(O)c(O)cc1c4c23
  TAR Tat displ = 31*!	CDC25B-CDK2 inh = .

# Taken from above:
# Under CDC25B-CDK2 inh, `NOCC(=O)O` reads 1.1
# Under TAR Tat displ, `O=C(CCc1nnc2ccc(N3CCOCC3)nn12)N1CCN(c2ccccn2)CC1` reads 1.1
# Under CDC25B-CDK2 inh, `Cc1c(Cn2ccnc2)c2ccccc2n1CCC(=O)O` reads -2
# Under TAR Tat displ, `NC(N)=O` reads 1.2

# Returning to the listing, repeating the two entries before the break.
O=C(Cn1c(=O)n(Cc2ccco2)c(=O)c2oc3ccccc3c21)Nc1ccccc1
  TAR Tat displ = 0.83	CDC25B-CDK2 inh = .
O=c1oc2c(O)c(O)cc3c(=O)oc4c(O)c(O)cc1c4c23
  TAR Tat displ = 31*!	CDC25B-CDK2 inh = .
Cc1ccc(=O)n(-c2ccccc2)c1
  TAR Tat displ = .	CDC25B-CDK2 inh = 0.05
Cc1nc2c(-c3ccccc3)c(C)[nH]n2c(=O)c1Cc1ccc(Br)cc1
  TAR Tat displ = 2.7	CDC25B-CDK2 inh = -2.9
CCOC(=O)C(Cc1c(C)[nH]c2ccccc12)C(=O)OCC
  TAR Tat displ = 1.1	CDC25B-CDK2 inh = -4
CCc1ccc(CCOc2ccc(CC3SC(=O)NC3=O)cc2)nc1 (configuration not stated)
  TAR Tat displ = 0.15&0.69	CDC25B-CDK2 inh = .
CCN(CC)CCOC(=O)c1ccc(N)cc1
  TAR Tat displ = 0.39	CDC25B-CDK2 inh = 0.17
CC1(C)O[C@@H]2CC3C4C[C@H](F)C5=CC(=O)C=C[C@]5(C)[C@@]4(F)[C@@H](O)C[C@]3(C)[C@]2(C(=O)CO)O1 (some centres not stated)
  TAR Tat displ = 0.65	CDC25B-CDK2 inh = .
COc1ccc(C2CNC(=O)C2)cc1OC1CCCC1 (configuration not stated)
  TAR Tat displ = 0.16	CDC25B-CDK2 inh = -0.37
C/C=C/C(=O)N(CC)c1ccccc1C
  TAR Tat displ = 1.2	CDC25B-CDK2 inh = .
CCOC(=O)[C@H](CCc1ccccc1)N[C@@H](C)C(=O)N1Cc2ccccc2C[C@H]1C(=O)O
  TAR Tat displ = 0.11	CDC25B-CDK2 inh = .
CCCCNc1ccc(C(=O)OCCN(C)C)cc1
  TAR Tat displ = -1.1	CDC25B-CDK2 inh = -0.65
O=C(O)CCC(=O)c1ccc(-c2ccccc2)cc1
  TAR Tat displ = 1.1	CDC25B-CDK2 inh = .
N#Cc1ccc(C(c2ccc(C#N)cc2)n2cncn2)cc1
  TAR Tat displ = 0.35	CDC25B-CDK2 inh = .
N[C@@H](Cc1c[nH]c2ccc(O)cc12)C(=O)O
  TAR Tat displ = .	CDC25B-CDK2 inh = -0.17
CCC(NC(C)C)C(O)c1ccc(O)c2[nH]c(=O)ccc12 (configuration not stated)
  TAR Tat displ = -0.43	CDC25B-CDK2 inh = .
Cc1cccc2c1NC(=O)C2(c1ccc(O)cc1)c1ccc(O)cc1
  TAR Tat displ = .	CDC25B-CDK2 inh = 0.08
CN1CCCN=C1COC(=O)C(O)(c1ccccc1)C1CCCCC1 (configuration not stated)
  TAR Tat displ = -0.58	CDC25B-CDK2 inh = .
CCC(=O)N1c2ccc(S(=O)(=O)N3CCCCC3)cc2CC1C(=O)NC1CCCC1 (configuration not stated)
  TAR Tat displ = 0.46	CDC25B-CDK2 inh = .
CCCc1nc(C(C)(C)O)c(C(=O)O)n1Cc1ccc(-c2ccccc2-c2nn[nH]n2)cc1
  TAR Tat displ = 1.8	CDC25B-CDK2 inh = .

# A portion of the results above, as a working copy:
Cc1ccc(=O)n(-c2ccccc2)c1
  TAR Tat displ = .	CDC25B-CDK2 inh = 0.05
Cc1nc2c(-c3ccccc3)c(C)[nH]n2c(=O)c1Cc1ccc(Br)cc1
  TAR Tat displ = 2.7	CDC25B-CDK2 inh = -2.9

# A draw from above in order of SMILES length, lowest first:
Cc1ccc(=O)n(-c2ccccc2)c1
  TAR Tat displ = .	CDC25B-CDK2 inh = 0.05
CCCCNc1ccc(C(=O)OCCN(C)C)cc1
  TAR Tat displ = -1.1	CDC25B-CDK2 inh = -0.65
Cc1nc2c(-c3ccccc3)c(C)[nH]n2c(=O)c1Cc1ccc(Br)cc1
  TAR Tat displ = 2.7	CDC25B-CDK2 inh = -2.9
CCC(=O)N1c2ccc(S(=O)(=O)N3CCCCC3)cc2CC1C(=O)NC1CCCC1 (configuration not stated)
  TAR Tat displ = 0.46	CDC25B-CDK2 inh = .
CCCc1nc(C(C)(C)O)c(C(=O)O)n1Cc1ccc(-c2ccccc2-c2nn[nH]n2)cc1
  TAR Tat displ = 1.8	CDC25B-CDK2 inh = .
